HSV augment: HSV replication enhancement; HSV replication augmentation in cells, fold increase; maximum fold increase; 220,000 tested, 0.005% active; AID 1956;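 active means peak rise of 1.5-fold or more in the series; tested in PC3 cells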;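 further: first round at 10 µM; read as green reporter fluorescence; hits show the peak of a series up to 25 µM; 1 = signal of infected wells without compound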
Insulin prom inh: TRM-6 insulin promoter activity inhibition; TRM-6 cells (human fetal islet line), insulin promoter-eGFP reporter, imaging; reporter expression induced with tamoxifen; 130,000 tested, 0.9% active; inhibition, % at 2 µM;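 active means inhibition above the mean plus 3 SD, with well images judged a real hit on visual review, cut at about 60% in these data, passing the limit was not always enough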
RGS16-Gao: regulators of human RGS16-Galphao interaction; O15492+P09471; bead-based flow cytometry RGS16-Galphao binding, fluorescence; actives lie on both sides; binding response (% of control), % at 10 µM; 220,000 tested, 0.38% active;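 active means below 25% or above 175%, edge rows of some plates excepted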;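 further: Galphao activated by GDP with aluminum fluoride before binding; 100% = wells without compound and 0% = beads without RGS; some results beyond the cut were filed as inactive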
GALR2 agonist: agonists of human galanin receptor 2 (GALR2); GALR2-expressing cells, agonist activation read-out; activation, %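 (tested at 5 µM)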; 140,000 tested, 0.48% active;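 active means above mean plus 3 SD of all compounds, about 5% in these data, not always enough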;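 further: 0% = vehicle buffer wells and 100% = reference agonist at full effect; tested in CHO reporter cells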
PKD1 inh: blocks activity of human protein kinase D1. Q15139. PKD1 kinase fluorescence polarization assay. inhibition, %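 (about 10 µM by stock and volumes)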. 200,000 tested, 0.056% active;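 active means inhibition of 50% or more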;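 further: controls were vehicle for no effect and a reference inhibitor for full effect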
Target sequence (Q15139 whole entry, looked up): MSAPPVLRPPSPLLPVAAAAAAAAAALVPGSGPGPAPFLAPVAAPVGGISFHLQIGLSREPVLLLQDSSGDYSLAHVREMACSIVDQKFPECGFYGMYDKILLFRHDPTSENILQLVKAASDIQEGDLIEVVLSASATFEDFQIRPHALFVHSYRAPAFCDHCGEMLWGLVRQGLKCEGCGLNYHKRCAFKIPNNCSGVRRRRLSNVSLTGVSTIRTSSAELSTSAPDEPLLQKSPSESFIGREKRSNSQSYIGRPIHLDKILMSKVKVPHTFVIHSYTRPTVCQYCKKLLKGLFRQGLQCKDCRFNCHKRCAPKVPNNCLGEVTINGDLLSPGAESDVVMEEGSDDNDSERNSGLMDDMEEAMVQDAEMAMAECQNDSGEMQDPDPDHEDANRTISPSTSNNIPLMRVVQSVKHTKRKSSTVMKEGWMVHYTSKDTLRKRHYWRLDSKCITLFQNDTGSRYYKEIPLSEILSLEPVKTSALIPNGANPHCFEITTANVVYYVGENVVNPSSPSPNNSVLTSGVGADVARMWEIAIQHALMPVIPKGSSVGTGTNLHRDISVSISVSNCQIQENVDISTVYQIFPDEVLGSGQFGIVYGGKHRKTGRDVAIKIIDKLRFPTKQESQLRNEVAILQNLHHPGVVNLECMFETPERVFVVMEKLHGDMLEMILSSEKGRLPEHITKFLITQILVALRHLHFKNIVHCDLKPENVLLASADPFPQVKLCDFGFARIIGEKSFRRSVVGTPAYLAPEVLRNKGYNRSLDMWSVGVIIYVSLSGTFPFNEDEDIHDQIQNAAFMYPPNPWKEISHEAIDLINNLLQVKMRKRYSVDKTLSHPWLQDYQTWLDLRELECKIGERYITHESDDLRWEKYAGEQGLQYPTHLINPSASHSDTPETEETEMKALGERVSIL
Insulin prom inh cell count: second read-out of Insulin prom inh, no call of its own (marks repeat the call); normalized cell count, %; measured here: cell count, toxicity; reference of the scale not given here;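 cells exposed to compound for 48 h; stained nuclei by imaging scaled within each plate; lower means fewer cells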
HSV augment primary fold: recorded beside HSV augment, whose call it bears; fold increase; compound at 10 µM; measured here: primary screen fold increase 10 uM; tested in PC3 cells;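 GFP signal in the first replicate; 1 = infected wells without compound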
Numbers without * were called inactive; i = inactive; · = not tested or not shown; [ ] = dose if it differs, or a comment.

SMILES	HSV augment	HSV augment primary fold	Insulin prom inh	Insulin prom inh cell count	RGS16-Gao	GALR2 agonist	PKD1 inh
C=CCNC(=S)N1CCN(CCN=CC2=C(O)CC(c3ccc(Cl)cc3)CC2=O)CC1 (centres undefined)	i	0.99	·	·	97	·	-5
CCc1cccc(CC)c1NC(=O)CN1CCN(c2ccccc2)CC1	i	1.3	·	·	98	-1.7	-4
Cc1cc[n+](CCC(=O)O)c2ccccc12	i	1	27	79	88	-1.4	7
Cc1noc(C)c1CSc1nnc(-c2ccccc2)o1	i	0.95	·	·	96	·	-1
Cc1cccc(OCc2nnc(SCC(=O)N3c4ccccc4CC3C)n2C)c1C (centres undefined)	i	0.9	-115	88	96	-0.8	-3
CC1CCN(C2=NC(=O)/C(=C/c3cn(-c4ccccc4)nc3-c3cccc(S(=O)(=O)N(C)C)c3)S2)CC1	i	1	·	·	105	0.1	-14
COc1ccc(-c2nc(=S)[nH][nH]2)cc1	i	1	38	96	98	-1.0	2
O=c1cc(CN2CCN(c3ccc(O)cc3)CC2)nc2scc(-c3ccccc3)n12	i	0.96	43	101	101	·	-3
CNc1n[nH]c(=S)s1	i	1.1	·	·	107	·	·
CCC(c1nnc(SCC(=O)N2CC(=O)Nc3ccccc32)n1Cc1ccccc1)N(C)C (centres undefined)	i	0.93	·	·	101	-1.9	-8
S=c1[nH]nc(-c2ccccc2)n1/N=C/c1c[nH]c2ccccc12	i	1	38	80	99	-0.8	-4
C/C(=N/NC(=O)c1ccn(C)n1)c1ccncc1	i	0.87	·	·	102	·	·
O=C(CCN1C(=O)c2ccccc2C1=O)Nc1sc2c(c1C(=O)NCC1CCCO1)CCC2 (centres undefined)	i	0.96	4	132	106	-0.1	-13
CN(C)c1ccc(C(=O)NC2CCCc3ccccc32)cc1 (centres undefined)	i	1.1	-71	125	97	·	5
COC(=O)c1ccc2c(=O)n(CCN3CCOCC3)c(SCC(=O)c3ccccc3)nc2c1	i	1	·	·	102	·	·
C=CCN1C(=O)C(CCCC)NC1=S (centres undefined)	i	0.96	33	124	100	0.1	-17
CC(C)c1nnc(NC(=O)C2CCCCC2)s1	i	0.93	·	·	101	-0.9	-16
COCCOC(=O)c1ccc(NC(=O)COc2ccc([N+](=O)[O-])cc2)cc1	i	0.94	-15	111	81	·	4
CCOc1ccccc1Nc1nc(-c2sc(C)nc2C)cs1	i	0.73	·	·	107	·	-5
COc1cc(OC)c(C(=O)/C=C/c2ccccc2)c(O)c1O	i	0.63	·	·	99	·	·
COc1cccc(C(=O)CN2C(=O)C(C)(C)Oc3ccc(C(=O)N4CCCCCC4)cc32)c1	i	0.96	-44	108	104	0.2	4
O=C(Cc1ccccc1)NC(NCCc1ccccc1)C(Cl)(Cl)Cl (centres undefined)	i	0.98	-22	95	103	-1.1	-6
Clc1ccccc1OCc1nc(-c2ccccn2)no1	·	·	-64	148	97	-1.4	-3
Cc1ccccc1NCC(=O)N/N=C\C=C\c1cccc([N+](=O)[O-])c1	i	0.88	21	133	109	-0.8	3
CCOc1cc(C(=O)CCC(=O)OCC(=O)N2c3ccccc3NC(=O)C2(C)C)ccc1O	i	1.1	0	119	91	-1.4	4

Later entries
SMILES	HSV augment	HSV augment primary fold	Insulin prom inh	Insulin prom inh cell count	RGS16-Gao	GALR2 agonist	PKD1 inh
C=CCNC(=O)c1cc2nc(C3CC3)cc(C(F)F)n2n1	i	0.91	19	89	104	0.2	-2
O=C(Nc1nc2c(s1)CCCC2)c1cc(-c2ccncc2)nc2ccccc12	i	1	-3	110	99	-0.7	3
CCCCNc1c2c3c(cccc3n(C)c1=O)C(=O)c1ccccc1-2	·	·	-433	131	104	-0.8	32
CSc1ncc(CN2CCc3c([nH]c4ccccc34)C2c2cccc(O)c2)cn1 (centres undefined)	i	1.1	·	·	109	·	2
Cc1ccc(Oc2coc3cc(OC(=O)c4cccs4)ccc3c2=O)cc1	i	0.76	46	110	102	-3.5	11
COc1cc(-c2cc(-c3nnco3)c3ccccc3n2)cc(OC)c1OC	i	0.99	·	·	106	·	-9
O=C(CSC1=Nc2ccccc2C2CC=NN12)Nc1ccc2c(c1)OCO2 (centres undefined)	i	1	·	·	70	·	-4
CC(C)=CC(=O)OCC(=O)Nc1ncc(Cl)c(C)c1Cl	i	0.92	5	157	90	-3.0	-2
CC(C)CC(NC(=O)C(NC(=O)C(Cc1ccc(OCc2ccccc2)cc1)NC(=O)OC(C)(C)C)C(C)C)C(N)=O (centres undefined)	i	1.1	·	·	183*[activator]	1.3	-1
CC(C)Nc1nc(NC(C)(C)C)nc(Oc2ccc(=O)n(C)n2)n1	i	0.85	-29	102	110	·	0
COc1ccc(C(c2sc3nc(C)nn3c2O)N2CC(C)OC(C)C2)cc1OC (centres undefined)	i	1.1	60	70	105	-3.1	-12
O=C(O)/C=C/C(=O)NCc1cn(-c2ccccc2)nc1-c1cccc(Br)c1	i	0.97	i	3	101	·	-4
CCCOc1ccc(-c2nc[nH]c2[N+](=O)[O-])cc1	i	0.95	-82	49	95	·	-10
CC1CCN(S(=O)(=O)c2ccc(NC(=S)NC(=O)c3ccc(Cl)cc3)cc2)CC1	i	0.84	-20	117	104	-2.5	-5
COc1cccc(NC(=O)C(=O)N/N=C/c2cc(C)n(-c3ccc(Cl)c(Cl)c3)c2C)c1	i	0.99	3	70	110	0.5	4
C#CCNc1c(C)c(C)nc2ncnn12	i	1.1	-27	29	86	0.8	-10
CCC(=O)N1c2ccc(S(=O)(=O)N(CCO)Cc3ccccc3)cc2CC1C (centres undefined)	i	0.97	0	60	101	-1.1	-3
O=C(CSc1nc2ccccc2c(=O)n1NC(=O)c1ccccc1)c1ccccc1	i	1.3	0	35	101	-0.6	-9
Clc1ccc(-c2nc3ncccn3c2Nc2ccc3c(c2)OCCO3)cc1	i	1.1	-7	112	101	-2.6	15
COc1ccc(Nc2ccccc2)c(C)c1	i	0.96	-25	167	103	0.0	3
Cc1cc(C)c(C)c(OCCOCCNCc2ccccc2)c1	i	0.89	-133	41	103	-0.1	7
CC1(C)C(=O)Nc2ccccc2N1C(=O)COc1ccc(S(=O)(=O)N2CCOCC2)cc1Cl	i	0.9	·	·	95	-3.8	8
CC(C)(C)N(NC(=O)Nc1ccccc1)C(=O)c1ccccc1Cl	i	1	·	·	98	-0.9	2
CS(=O)(=O)N1CCN(c2ccccc2NC(=O)c2cccnc2Cl)CC1	i	0.98	11	82	98	-1.5	-9
COc1ccc(C(=O)N/C(=C\c2ccco2)C(=O)NCc2cccnc2)cc1	·	·	23	89	99	-0.6	6

The list continues.
SMILES	HSV augment	HSV augment primary fold	Insulin prom inh	Insulin prom inh cell count	RGS16-Gao	GALR2 agonist	PKD1 inh
COc1cccc(OC)c1C(=O)NC(=S)Nc1ccc(S(=O)(=O)Nc2nccs2)cc1	i	1	·	·	73	·	9
CCCN=C1CC(C)(C)CC(=O)/C1=C(/O)CCCN1C(=O)c2ccccc2C1=O	i	1	·	·	106	·	-6
O=C(CSCc1ccccc1Cl)NNC(=S)Nc1ccccc1	i	1	·	·	92	-1.8	-5
Cc1ccc(-c2cc(C(=O)NN3CCOCC3)c3cc(Br)ccc3n2)o1	i	1.1	·	·	99	·	-7
CCN1CCN(C(=S)c2ccc(Cl)cc2)CC1	i	1.1	53	149	35	-1.2	-3
COC(=O)Cn1c(C(F)(F)F)nc2ccccc21	i	1.1	15	87	85	-0.7	5
COc1ccccc1-c1cc(SC)c(C#N)c(=O)o1	i	0.72	-26	102	105	-1.4	-1
CSc1ncc(CN2CCN(C(C)C)C(CCO)C2)cn1 (centres undefined)	i	0.94	·	·	99	·	-1
N#Cc1ccc(CSc2nnc(Nc3ccccc3)s2)cc1	i	1	·	·	103	-2.4	1
O=c1oc2c3c4c(cc2c2c1CCC2)OCCN4CCC3	i	0.98	·	·	96	3.3	-12
COc1ccc(CN2CCN(C(=O)C3CC(=O)N(C4CCCCCC4)C3)CC2)c(OC)c1OC (centres undefined)	i	1	-10	154	95	-2.0	-10
O=c1o[nH]c(-c2ccccc2)c1C=Nc1ccc(Cl)cc1	i	1	·	·	103	·	-1
O=C(Nc1ccc(Cl)c(Cl)c1)Nc1nnc(CC2=CCCCC2)s1	i	0.77	·	·	103	-2.1	3
Cc1ccc(CCCOC(=O)CN2CCCCC2)cc1	i	0.94	0	106	107	·	-5
CC1CCc2sc3nc(NCc4ccco4)n4ncnc4c3c2C1 (centres undefined)	i	0.96	·	·	106	-0.5	8
O=C(CNC(=O)c1ccccc1)N/N=C/c1ccc([N+](=O)[O-])s1	i	0.77	-35	137	100	·	-4
COc1ccc(C(=O)NNC(=O)CCn2nnc(-c3ccc(Cl)cc3)n2)cc1OC	i	0.98	·	·	100	·	-3
CC(=O)c1ccc(-c2ccc([C@H]3[C@@H]4C=CCC[C@@]4(C)C(=O)N3Cc3ccccc3)c(F)c2)cc1	i	0.8	·	·	101	·	·
CCCC(=NCc1ccccc1)C1=C(O)C(C(=O)OC)C(C)(C)CC1=O (centres undefined)	i	0.94	-69	89	106	-3.1	0
COc1ccc(-c2nc3nc(C)cc(=O)n3[nH]2)cc1	i	0.92	20	123	102	-1.3	-9
CC(=O)Nc1cccc(C(=O)OCC(=O)NC(C)c2ccc(F)cc2)c1 (centres undefined)	i	1.1	·	·	103	·	5
Cc1nn(C)cc1CNC(=O)Nc1cccc(Cl)c1	i	0.97	-37	83	113	-0.8	-9
Cc1ccc2oc3nc(C)c(C(=O)Nc4cccc(C(F)(F)F)c4)cc3c(=O)c2c1	i	0.43	-36	106	135	-1.2	0
Clc1ccc(-c2csc(N/N=C/c3cccnc3)n2)c(Cl)c1	i	0.87	33	140	102	0.1	-1
c1ccc(-n2c(SCc3ccncc3)nnc2-c2ccco2)cc1	i	1	50	170	106	0.8	-9
CNc1nc(-c2ccc3c(c2)CCN3C(=O)c2ccccc2F)c(C)s1	i	1.1	20	57	94	·	-2
O=S(=O)(NCc1ccccc1F)NCc1ccccc1F	·	·	-85	113	108	·	-8
O=c1[nH]c(=O)n(Cc2ccccc2)c2c1C(C(F)(F)F)(C(F)(F)F)N=C(c1ccco1)N2	i	0.97	37	103	42	0.0	2
CN(C)c1nc2n(c(=O)n1)CCS2	i	0.91	6	144	99	-2.1	5
Cc1ccccc1OCc1nnc(SCC(=O)Nc2ccc(N3CCOCC3)c(Cl)c2)n1C	i	1.1	·	·	107	-0.2	2

Fetched one by one from the list above, two records:
SMILES	HSV augment	HSV augment primary fold	Insulin prom inh	Insulin prom inh cell count	RGS16-Gao	GALR2 agonist	PKD1 inh
Cc1ccc(CCCOC(=O)CN2CCCCC2)cc1	i	0.94	0	106	107	·	-5
O=c1[nH]c(=O)n(Cc2ccccc2)c2c1C(C(F)(F)F)(C(F)(F)F)N=C(c1ccco1)N2	i	0.97	37	103	42	0.0	2

Limited to HSV augment, PKD1 inh and RGS16-Gao, for two of the compounds above:
Molecule,HSV augment,PKD1 inh,RGS16-Gao
COc1cccc(OC)c1C(=O)NC(=S)Nc1ccc(S(=O)(=O)Nc2nccs2)cc1,i,9,73
CCCN=C1CC(C)(C)CC(=O)/C1=C(/O)CCCN1C(=O)c2ccccc2C1=O,i,-6,106

Grouped by structure, the compounds so far with a nitro group on carbon
SMILES	HSV augment	HSV augment primary fold	Insulin prom inh	Insulin prom inh cell count	RGS16-Gao	GALR2 agonist	PKD1 inh
COCCOC(=O)c1ccc(NC(=O)COc2ccc([N+](=O)[O-])cc2)cc1	i	0.94	-15	111	81	·	4
Cc1ccccc1NCC(=O)N/N=C\C=C\c1cccc([N+](=O)[O-])c1	i	0.88	21	133	109	-0.8	3
CCCOc1ccc(-c2nc[nH]c2[N+](=O)[O-])cc1	i	0.95	-82	49	95	·	-10
O=C(CNC(=O)c1ccccc1)N/N=C/c1ccc([N+](=O)[O-])s1	i	0.77	-35	137	100	·	-4

Bioassay records: PubChem, several laboratories
